PV pol inh: poliovirus RdRp elongation inhibitors, primary screen, biochemical, fluorescence polarization, total intensity; % elongation, % (compound at 16.7 µg/mL); poliovirus polymerase elongation; hits give low values; actives 0.66% (n = 150,000); Genome polyprotein (Poliovirus type 1 (strain Mahoney)), P03300; in the data active means % elongation below about 90%; further: some results filed as inactive read as strong as hits
Target sequence (P03300 1749-2209 limits assumed): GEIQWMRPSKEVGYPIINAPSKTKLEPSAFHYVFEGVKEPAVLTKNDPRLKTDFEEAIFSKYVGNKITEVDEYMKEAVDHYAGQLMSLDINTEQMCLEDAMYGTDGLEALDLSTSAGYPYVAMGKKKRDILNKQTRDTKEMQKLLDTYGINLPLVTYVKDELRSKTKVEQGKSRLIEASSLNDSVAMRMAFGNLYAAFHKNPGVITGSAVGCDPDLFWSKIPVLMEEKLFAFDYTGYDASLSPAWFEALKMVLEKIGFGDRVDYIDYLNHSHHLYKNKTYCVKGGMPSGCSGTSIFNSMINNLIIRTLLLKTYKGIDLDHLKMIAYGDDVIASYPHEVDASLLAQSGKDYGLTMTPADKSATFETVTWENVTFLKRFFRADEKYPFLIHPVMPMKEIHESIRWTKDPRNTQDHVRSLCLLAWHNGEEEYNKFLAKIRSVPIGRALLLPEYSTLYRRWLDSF
PV pol inh intensity: recorded beside PV pol inh, whose call it bears; % elongation; measured here: total intensity read-out; formula for this scale not given here;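 total fluorescence in place of polarization; lower means less elongation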
An asterisk follows results filed as active. This is a subset, so the mix of outcomes need not match the whole.

SMILES	PV pol inh	PV pol inh intensity
COc1cccc(N2CCN(C(=O)c3cnn(-c4ccc(C)cc4C)c3C3CCN(C(=O)OC(C)(C)C)CC3)CC2)c1	107.0	111.0
COC(=O)c1ccc(NS(=O)(=O)c2ccc(-n3cccn3)cc2)cc1	103.0	111.0
Cc1ccc(CCNC(=O)c2cc3ccccn3n2)cc1	105.0	100.0
CCOc1ccc(C(=O)c2cn(CC(=O)Nc3ccc(C)c(Cl)c3)c3ccc(OCC)cc3c2=O)cc1	109.0	108.0
COc1ccc(N2CC(NC(=O)c3ccco3)CC2=O)cc1 (configuration not stated)	108.0	112.0
COC(=O)c1ccc(-n2nnc(-c3nsc(NC(=O)c4ccc(Cl)cc4)n3)c2C)cc1	105.0	114.0
CCOc1cccc(NC(=O)C2CC(=O)N(C)C(=Nc3ccc(OC)cc3)S2)c1 (configuration not stated)	112.0	106.0
CCOc1cc2[nH]c(=O)n(CCCC(=O)N3CCN(c4ccc(OC)cc4)CC3)c(=O)c2cc1OCC	106.0	107.0
O=C(NCC(c1cccnc1)N1CCN(c2ccccc2F)CC1)c1ccc(F)cc1 (configuration not stated)	106.0	102.0
COc1ccc(-c2nc(CSCC(=O)NCCc3ccc(C)cc3)c(C)o2)cc1OC	104.0	104.0
CCCN(CCC)CCCNC(=O)c1cc2c(-c3ccc(Cl)cc3)nn(C)c2s1	93.0	95.0
Cc1nn(CC(=O)N2CCN(c3ccccc3)CC2)c(=O)c2cc3sccc3n12	108.0	113.0
Cc1ccc(OCCCCn2nnc3sc4c(c3c2=O)CCC(C)C4)cc1 (configuration not stated)	102.0	106.0
CCOc1ccc(-c2cc(C(=O)N3CCN(c4cccc(C)c4)C(C)C3)c3ccccc3n2)cc1 (configuration not stated)	109.0	97.0
CCCN1C(=O)c2[nH]nc(-c3ccccc3)c2C1c1cccc(O)c1 (configuration not stated)	109.0	107.0
Cc1ccc(N2CC(NC(=O)c3ccc(S(=O)(=O)N(C)C)cc3)CC2=O)cc1C (configuration not stated)	111.0	111.0
Cc1ccccc1C(=O)Nc1nnc(S(=O)(=O)N2CCCCCC2)s1	110.0	106.0
CC1CCN(S(=O)(=O)c2ccc3c(c2)N(CC(=O)N2CCN(c4ccc(Cl)cc4)CC2)C(=O)CO3)CC1	107.0	111.0
CC(C)(C)c1ccc(OCCOCCn2c(-c3ccc(Cl)cc3)nc3ccccc3c2=O)cc1	101.0	98.0
Cc1cccc(CCNC(=O)C2CCN(c3nc4ccccc4nc3C(F)(F)F)CC2)c1	105.0	113.0

5 compounds picked at random from the list so far:
SMILES	PV pol inh	PV pol inh intensity
COc1ccc(N2CC(NC(=O)c3ccco3)CC2=O)cc1 (configuration not stated)	108.0	112.0
COc1cccc(N2CCN(C(=O)c3cnn(-c4ccc(C)cc4C)c3C3CCN(C(=O)OC(C)(C)C)CC3)CC2)c1	107.0	111.0
Cc1ccc(OCCCCn2nnc3sc4c(c3c2=O)CCC(C)C4)cc1 (configuration not stated)	102.0	106.0
Cc1ccccc1C(=O)Nc1nnc(S(=O)(=O)N2CCCCCC2)s1	110.0	106.0
Cc1ccc(N2CC(NC(=O)c3ccc(S(=O)(=O)N(C)C)cc3)CC2=O)cc1C (configuration not stated)	111.0	111.0

(listing goes on)
SMILES	PV pol inh	PV pol inh intensity
COC(=O)CC1Oc2ccc(Cl)cc2-n2cc(-c3ccccc3)nc21 (configuration not stated)	107.0	107.0
Cc1cccc2sc(N(CCN(C)C)C(=O)c3ccc4c(c3)OCCO4)nc12	98.0	94.0
CCOC(=O)c1ccccc1NC(=O)CN1CCCN(Cc2cccc(Cl)c2)S1(=O)=O	110.0	107.0
CCOc1ccc(NC(=O)c2ccc(-c3nc(COc4ccccc4)c(C)o3)cc2)cc1	102.0	106.0
Cc1cccc(N2CCN(c3ncnc4onc(C)c34)CC2C)c1 (configuration not stated)	106.0	103.0
Cc1ccc(-n2nc3c(=O)n(CC(=O)NCC(C)c4ccccc4)nc(C)c3c2C)cc1 (configuration not stated)	101.0	105.0
COc1ccc(CNC(=O)c2ccc3nc(C(C)C)oc3c2)cc1OC	104.0	107.0
CCOc1ccc(-n2cc(-c3ccccc3)c3c(NC4CCCCC4)ncnc32)cc1	108.0	112.0
Cc1ccc(Sc2ccc(N3CCCC(C(=O)Nc4ccc(F)cc4F)C3)nn2)cc1 (configuration not stated)	106.0	110.0
Cc1ccc2onc(CC(=O)N3CCN(c4cccc(C)c4C)CC3)c2c1	105.0	107.0
Cn1c(=O)c2cc(C(=O)Nc3cccc(C#N)c3)sc2c2ccccc21	105.0	105.0
COc1ccc(Br)cc1CNC(=O)c1ccc(-n2c(C)cc3c2CCC(C)C3)cc1 (configuration not stated)	117.0	118.0
Cn1c(NCCN)nc2c1c(=O)n(Cc1ccccc1)c(=O)n2C	107.0	109.0
CC(C)OCCCn1c(SCC(=O)Nc2ccc(F)cc2)nc2c(sc3ccccc32)c1=O	107.0	101.0
O=C(NCCc1ccc(Cl)cc1)c1ccc2c(c1)N(Cc1ccc(F)cc1)C(=O)CS2	100.0	108.0
Cc1c2cnn(CC(=O)N3CCN(c4ccccc4)CC3)c(=O)c2c(C)n1Cc1ccc(F)cc1	107.0	105.0
CN(C)S(=O)(=O)c1ccc(C(=O)NC2CC(=O)N(c3ccc4c(c3)OCCO4)C2)cc1 (configuration not stated)	105.0	98.0
Cc1ccc(Sc2c(C(=O)NCc3cccc(F)c3)[nH]c3ccccc23)cc1	112.0	110.0
Cc1ccc(C)c(NC(=O)CN(C)S(=O)(=O)c2cccc3nsnc23)c1	107.0	109.0
CC(C)NC(=O)C1CCC(Cn2c(=O)c3sccc3n(CC(=O)N3CCCC3)c2=O)CC1 (configuration not stated)	107.0	112.0

Compound profiles, from the list above. Order of screens: PV pol inh, PV pol inh intensity
`CCOc1ccc(-n2cc(-c3ccccc3)c3c(NC4CCCCC4)ncnc32)cc1` in the list: 108.0, 112.0
`COC(=O)CC1Oc2ccc(Cl)cc2-n2cc(-c3ccccc3)nc21` (configuration not stated) in the list: 107.0, 107.0
`COc1ccc(CNC(=O)c2ccc3nc(C(C)C)oc3c2)cc1OC` in the list: 104.0, 107.0
`Cn1c(=O)c2cc(C(=O)Nc3cccc(C#N)c3)sc2c2ccccc21` in the list: 105.0, 105.0

(listing goes on)
SMILES	PV pol inh	PV pol inh intensity
Cc1ccc2c(c1)c(=O)c1ccccc1n2CCCC(=O)Nc1ccc(Cl)c(Cl)c1	105.0	113.0
Cc1ccc(CNC(=O)CCN2C(=O)COc3ccc(C)cc32)cc1	99.0	105.0
CCOC(=O)c1c(NC(=O)CCCOc2ccc(C(C)(C)C)cc2)sc2c1CCCC2	103.0	100.0
CC1CCCN(C(=O)Cn2c(=O)oc3cc(S(=O)(=O)N4CCCCC4)ccc32)C1 (configuration not stated)	108.0	108.0
CCOc1cccc(CC(=O)NCc2ccc3c(c2)CCN3C(=O)c2ccc(F)cc2)c1OCC	109.0	108.0
Cc1cc(C)n2c(Nc3c(C)cccc3C)c(-c3ccsc3)nc2n1	113.0	118.0
CCc1ccc2oc(-c3cc(NC(=O)c4cccnc4)cc(C)c3O)nc2c1	104.0	103.0
CCOC(=O)Cn1c(=O)oc2cc(S(=O)(=O)N3CCN(c4cc(C)ccc4C)CC3)ccc21	105.0	109.0
CC1=C(C(N)=O)C(c2ccccc2F)n2nc(-c3ccc(Cl)cc3)nc2N1 (configuration not stated)	108.0	109.0
Cc1ccc2nc(-c3ccc(O)cc3)c(Nc3ccc4c(c3)OCO4)n2c1	110.0	111.0
COc1ccc(CNC(=O)C(=O)NCC(c2ccco2)S(=O)(=O)c2ccc(C)cc2)cc1 (configuration not stated)	106.0	105.0
Cc1ccc(S(=O)(=O)c2cnc(SCC(=O)Nc3ccc4c(c3)OCCO4)[nH]c2=O)cc1C	102.0	103.0
COc1cccc(NC(=O)Cn2cc(S(=O)(=O)N3CCCC3)c(S(=O)(=O)N3CCCC3)c2)c1	114.0	111.0
COc1ccc2c(c1)CCc1c(C(=O)Nc3ccc(C#N)cc3)noc1-2	104.0	108.0
COc1cccc(C2C(=O)N(C3CCCCC3)CC(=O)N2CCc2ccc(OC)c(OC)c2)c1 (configuration not stated)	111.0	112.0
CCOC(=O)C1CCN(C(=O)c2ccc3c(c2)N=C(CC)c2cc(C)ccc2S3)CC1	107.0	108.0
CCOc1ccc(C(=O)NCCc2sc(-c3ccc(F)cc3)nc2C)cc1	109.0	110.0
COc1cccc(CNc2nc3c(-c4cccc(C)c4)nnn3c3ccccc23)c1	110.0	112.0
Nc1nc(Nc2cccc(C(F)(F)F)c2)sc1C(=O)c1ccccc1	105.0	110.0
COc1ccc(-c2nc(CS(=O)CC(=O)NCc3ccc(F)cc3)c(C)o2)cc1OC (configuration not stated)	103.0	105.0
Cc1cccc(N2CCN(C(=O)c3nn(C)c4c3CS(=O)(=O)c3ccccc3-4)CC2C)c1 (configuration not stated)	107.0	105.0
Cc1ccc(C)c(Cn2c(=O)c3c(nc4n3CCN4c3ccccc3)n(C)c2=O)c1	102.0	102.0
CC(=O)c1c(C)oc2ccc(N(C(=O)c3ccncc3)S(=O)(=O)c3ccc(C)cc3C)cc12	100.0	101.0
CCc1ccc(NC(=O)CSc2nc3ccccc3nc2Cc2ccc(C)cc2)cc1	103.0	101.0
CCN1c2ccccc2-c2nc(SCC(=O)Nc3cccc(C)c3C)ncc2S1(=O)=O	113.0	114.0
CSc1nnc(NC(=O)Cc2coc3cc(C)ccc23)s1	120.0	120.0
COc1ccc(-c2nc(CN3C(=O)CN=C(c4ccccc4Cl)c4cc(Cl)ccc43)c(C)o2)cc1OC	109.0	115.0
CCOCN(C(=O)Cn1c(CC(C)C)nc2ccccc21)c1c(C)cccc1CC	112.0	108.0
Cc1c(NC(=O)c2cc(-c3ccc(Cl)cc3)on2)c(=O)n(-c2ccccc2)n1C	103.0	98.0
CCN1C(=O)c2ccccc2S(=O)c2ccc(C(=O)N3CCN(c4ccc(F)cc4)CC3)cc21 (configuration not stated)	107.0	103.0
COc1ccc2sc(N(Cc3cccnc3)C(=O)C3COc4ccccc4O3)nc2c1 (configuration not stated)	103.0	103.0
Cc1cccc(C)c1NC(=O)C(=O)NCC(c1ccc2c(c1)OCO2)N1CCOCC1 (configuration not stated)	107.0	109.0
O=C(NC1CCCCC1)c1ccc(Cn2c(SCc3ccc(F)cc3)nc3cccnc32)cc1	115.0	111.0
Cc1cccc(NC(=O)Nc2nnc(N3CCCC3)s2)c1	107.0	111.0
O=S(=O)(c1ccc(Cl)cc1)c1nc(-c2cccs2)oc1N1CCCCC1	105.0	107.0
Cc1nc2nc(CNC(=O)c3cccc(F)c3)nn2c(C)c1CCC(=O)Nc1cccc(Cl)c1	111.0	105.0
Cc1cccc(CCNC(=O)c2cc3c(=O)[nH]c4ccc(C)cc4c3s2)c1	106.0	106.0
Cc1cc(C)c(C(=O)Nc2ccccc2)c(SCC(=O)Nc2ccc(Br)cc2C)n1	106.0	108.0
COc1cccc(/C=C(\C#N)c2nc3ccc(C)cc3[nH]2)c1	105.0	112.0
CCOC(=O)c1cccc(NC(=O)C2CCCN(S(=O)(=O)c3cc(Br)cc4c3N(C(=O)CC)CC4)C2)c1 (configuration not stated)	106.0	108.0
COc1ccccc1OCC(=O)N(Cc1cccs1)C1CCS(=O)(=O)C1 (configuration not stated)	106.0	107.0
COc1cc2c(cc1OC)C(COc1ccc(F)cc1)N(C(=O)C(C)C)CC2 (configuration not stated)	109.0	111.0
COc1ccc2c(C)c(CCC(=O)NCc3ccccc3Cl)c(=O)oc2c1C	103.0	108.0
Cc1cc2n(n1)CCCN2C(=O)Nc1ccc(F)c(Cl)c1	109.0	112.0
Cc1ccc(NC(=O)c2ccc3nc(Cc4ccccc4)oc3c2)cc1F	109.0	114.0
COc1cc(OC)cc(C(=O)Nc2ccc3nc4n(c(=O)c3c2)CCCCC4)c1	111.0	111.0
COc1ccc(SCc2cc(=O)c3ccc(C)c(C)c3[nH]2)cc1	102.0	108.0
CCN(CC)C(=O)CSc1nc2cc3c(cc2c(=O)n1CCCC(=O)NCc1ccc(OC)cc1)OCO3	101.0	104.0
Cc1ccc(-c2nc(SCCOc3ccccc3C)n3[nH]c(=O)cc3n2)cc1	108.0	101.0
Cc1ccc(N2C(=O)CSC23C(=O)N(CC(=O)Nc2ccc(C)cc2C)c2ccccc23)cc1 (configuration not stated)	102.0	99.0
CCCc1ccc(OCC(=O)Nc2ccc(Cl)cc2C(=O)c2ccccc2)cc1	101.0	110.0
Cc1cccc(N2CCN(C(=O)c3c4c(nc5ccccc35)C(=O)N(C3CCCCC3)C4)CC2)c1C	114.0	102.0
COc1ccccc1N1CCN(c2nc3c(S(=O)(=O)c4ccccc4)nnn3c3ccc(Cl)cc23)CC1	102.0	107.0
Cc1ccc2c(c1)-c1c(cnn1CC(=O)N1CCN(c3cc(C)ccc3C)CC1)CO2	105.0	107.0
CN(C)c1ccc(C(CNS(=O)(=O)c2ccc(F)cc2)N2CCc3ccccc32)cc1 (configuration not stated)	112.0	108.0
CCCCN(CC)CCCNC(=O)c1ccc2c(c1)NC(=O)CN2C	113.0	115.0
O=C(COc1ccc(Cl)cc1)Nc1ccccc1C(=O)OCc1cc(=O)n2ccsc2n1	103.0	101.0
CCOc1ccccc1CNC(=O)c1ccc2c(c1)nc1n2CCC(C)C1 (configuration not stated)	105.0	101.0
COc1ccc(-n2c(=O)c3c4c(sc3n(Cc3ccc(C)cc3C)c2=O)CCC4)c(OC)c1	102.0	105.0
CCc1cccc(NC(=O)CN(C)S(=O)(=O)c2ccc3c(c2)CCCN3C(C)=O)c1	111.0	112.0

Next section:
SMILES	PV pol inh	PV pol inh intensity
CCOc1ccc(NC(=O)Cn2ncc3c2-c2cc(C)ccc2OC3)cc1	104.0	107.0
COc1ccccc1CNS(=O)(=O)c1cc(Br)cc2c1N(C(=O)C1CC1)CC2	106.0	107.0
COc1ccc2oc(=O)c(-c3cn4c(n3)sc3cc(F)ccc34)cc2c1	107.0	102.0
Cc1cc(C)c(NC(=O)Cn2nnc(-c3nc(-c4ccccc4)no3)c2N)c(C)c1	112.0	115.0
O=C(CN1C(=O)COc2ccc(Cl)cc21)Nc1ccc(F)cc1	105.0	107.0
CCC(=O)C1=C(c2ccccc2)N(C(=O)CC)n2c(nnc2C2CCCCC2)S1	106.0	110.0
Cc1cccn2c(=O)c(C(=O)N3CCN(c4ccc(Cl)cc4)CC3)cnc12	109.0	108.0
